High-throughput results (PubChem)
DUX4 inh – blocks DUX4-driven transcriptional activation; 293T-iDUX4 ZSCAN4-Gaussia luciferase reporter, 24 h; hits give low values; activity change, negative = inhibition, % (test concentration not listed); actives 0.8% (n = 37,000); AID 1224904;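 active = -10% or lower and over 25 points stronger than a control reporter; inconclusive = -10% or lower with a smaller gap; inactive = above -10%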;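 also: 0% = median of neutral control wells and -100% = median of positive control wells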
DUX4 inh difference – recorded beside DUX4 inh, whose call it bears; Gaussia minus Italica difference, %; measured here: selective DUX4 reporter inhibition;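 worked out from the two reporters; negative = selective loss of the DUX4 reporter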
DUX4 inh control – second read-out of DUX4 inh, no call of its own (marks repeat the call); activity change, negative = inhibition, %; measured here: Italica tet-on control reporter;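 0 = neutral control and -100 = positive control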
Active calls of the source: *; ? = inconclusive; · = no result given.

SMILES	DUX4 inh	DUX4 inh difference	DUX4 inh control
O=C(C[C@@H]1CC[C@H]2[C@@H](COC[C@@H](O)CN2C(=O)c2cnccn2)O1)NCc1ccc(Oc2ccccc2)cc1	5	4	1.1
O=C(C1CCOCC1)N1[C@@H](CO)[C@@H]2c3ccccc3NC[C@@H]21	2	0	2.3
COc1ccc(NC(=O)N(C)C[C@@H]2OCc3cn(nn3)CCCC(=O)N([C@H](C)CO)C[C@H]2C)cc1	1	0	0.4
O=C(c1cccnc1)N1CC[C@@H]2[C@@H](CO)Nc3ccc(-c4cccc(F)c4)cc3[C@@H]21	0	7	-6.9
COc1cccc(NC(=O)N2[C@H](CO)[C@@H](c3ccccc3)[C@H]2CNCC(C)C)c1	-3	0	-2.8
COc1ccccc1NC(=O)N1CCCCN2[C@@H](CO)[C@H](c3ccc(-c4cccc(C#N)c4)cc3)[C@@H]2C1	-5	16	-21
CO[C@H]1CC[C@H]2CCN(C)C(=O)CCCN(C)C(=O)c3cc(C#N)ccc3OC[C@@H]1O2	0	1	-1.1
O=C(c1ccccc1F)N1C[C@@H]2[C@H](c3ccccc31)[C@@H](CO)N2Cc1ccc2c(c1)OCO2	0	0	-0.1
O=C(O)C[C@@H]1C[C@@H]2c3cc(NS(=O)(=O)c4ccc(F)cc4)ccc3O[C@@H]2[C@H](CO)O1	8	5	2.8
O=C(NCC1CCCCC1)[C@H]1[C@H](CO)[C@H]2Cn3c(cccc3=O)[C@H]2N1Cc1ccccn1	2	10	-8.1
C[C@@H]1CN([C@H](C)CO)C(=O)c2cccc(NC(=O)C3CCCCC3)c2O[C@@H]1CN(C)S(C)(=O)=O	-1	0	-1.0
O=C(C1CCC1)N1CC2(C1)[C@H](c1ccccc1)[C@H](CO)N2CCC(F)(F)F	2	1	1.1

Sorted by heavy-atom count (smallest number first): part of the list above.
SMILES	DUX4 inh	DUX4 inh difference	DUX4 inh control
O=C(C1CCOCC1)N1[C@@H](CO)[C@@H]2c3ccccc3NC[C@@H]21	2	0	2.3
COc1cccc(NC(=O)N2[C@H](CO)[C@@H](c3ccccc3)[C@H]2CNCC(C)C)c1	-3	0	-2.8
O=C(c1cccnc1)N1CC[C@@H]2[C@@H](CO)Nc3ccc(-c4cccc(F)c4)cc3[C@@H]21	0	7	-6.9
CO[C@H]1CC[C@H]2CCN(C)C(=O)CCCN(C)C(=O)c3cc(C#N)ccc3OC[C@@H]1O2	0	1	-1.1
O=C(NCC1CCCCC1)[C@H]1[C@H](CO)[C@H]2Cn3c(cccc3=O)[C@H]2N1Cc1ccccn1	2	10	-8.1

New compounds follow.
SMILES	DUX4 inh	DUX4 inh difference	DUX4 inh control
COc1cc(CN2[C@@H]3CNC[C@H]2C3c2ccc(-c3ccc(C#N)cc3)cc2)cc(OC)c1 (stereo partly specified)	11	7	4.3
C/C=C/c1ccc2c(c1)[C@@H]1[C@@H](CCN1C(=O)C1CCCC1)[C@H](CO)N2	14	4	10
CN1c2ccc(Br)cc2[C@H]2[C@H](CCN2C(=O)Nc2ccc(F)cc2)[C@@H]1CO	16	9	7.0
CN(C)C(=O)c1ccc(-c2ccc3c(c2)[C@@H]2[C@@H](CCN2C(=O)C2CCCC2)[C@H](CO)N3C)cc1	?	·	·
CO[C@@H](CN(C)S(=O)(=O)c1cn(C)cn1)[C@@H](C)CN(C(=O)Nc1ccc(C(F)(F)F)cc1)[C@@H](C)CO	-4	-2	-1.7
CC(C)NC(=O)N[C@H]1CC[C@@H](CC(=O)NCCCN(C)C)O[C@H]1CO	7	3	4.6
Cn1cnc(CCNC(=O)C[C@H]2CC[C@H]3[C@@H](COC[C@@H](O)CN3C(=O)Nc3ccc(Cl)cc3)O2)c1	5	-12	17
CN(C)CC(=O)N1CC[C@H]2[C@@H]1c1cc(Br)ccc1N(C)[C@H]2CO	16	14	2.1
CCCN1[C@@H]2c3ccc(-c4ccncc4)c(=O)n3C[C@@H]2[C@@H](CO)[C@@H]1C(=O)NCCCN1CCOCC1	-1	1	-1.4
C/C=C/c1ccc([C@H]2[C@@H](CO)N(CC3CC3)[C@@H]2CN(C(C)=O)C(C)C)cc1	1	3	-1.3
CC(C)(C)[S@](=O)N1Cc2cc(C(=O)N3CCc4ccccc4C3)nc(-c3cccc(-c4cncnc4)c3)c2[C@@H]1CCO	?	·	·
C[C@H](CO)N1C[C@H](C)[C@@H](CN(C)C(=O)Nc2ccc3c(c2)OCO3)Oc2c(NC(=O)C3CCOCC3)cccc2C1=O	4	9	-4.8
O=C(C[C@@H]1C[C@H]2c3cc(NC(=O)c4ccc5c(c4)OCO5)ccc3O[C@H]2[C@@H](CO)O1)NCc1ccc(Oc2ccccc2)cc1	?	·	·
CN1C(=O)c2cc(NC(=O)c3ccc(Cl)cc3)ccc2OC[C@@H]2O[C@@H](CC(=O)O)CC[C@@H]21	-4	-5	1.3
COc1ccc(S(=O)(=O)N[C@@H]2CC[C@H](CCn3cc(-c4ccccc4F)nn3)O[C@H]2CO)cc1	-3	-5	2.1
O=C(C[C@@H]1CC[C@H]2[C@@H](COC[C@@H](O)CN2CC2CCOCC2)O1)N1CCOCC1	6	2	4.1
C[C@@H]1CN([C@@H](C)CO)C(=O)c2ccccc2-c2ccccc2CO[C@@H]1CN(C)C(=O)c1ccc(F)cc1	9	7	1.7
COc1cccc(C(=O)N2C[C@H]3[C@@H](c4ccccc42)[C@@H](CO)N3C(=O)NC(C)C)c1	0	3	-3.1
COc1ccc2c3c([nH]c2c1)[C@H](CO)N(C(C)=O)CC31CN(C(C)=O)C1	9	-6	15
C[C@H]1CN([C@@H](C)CO)C(=O)c2cc(C#Cc3ccccc3F)cnc2O[C@@H]1CN(C)C(=O)Cc1cccnc1	-6	-4	-1.8
O=C(C[C@@H]1CC[C@H](NC(=O)C2CCOCC2)[C@H](CO)O1)NCc1ccccc1Cl	-2	-1	-1.2
CCCNC(=O)N1[C@H](CO)[C@H](c2ccc(-c3cccc(OC)c3)cc2)[C@@H]1C#N	-2	-3	1.1
C[C@H]1CN([C@@H](C)CO)C(=O)c2ccccc2-c2ccccc2CO[C@@H]1CN(C)Cc1cccc(C(F)(F)F)c1	-37*	-26*	-11*
CN1C(=O)c2cc(NC(=O)C3CCOCC3)ccc2OC[C@@H]2O[C@@H](CC(=O)NCC3CCCCC3)CC[C@H]21	-1	1	-1.7

Overlap with the part before: 6 entries, followed by the next part.
SMILES	DUX4 inh	DUX4 inh difference	DUX4 inh control
COc1ccc2c3c([nH]c2c1)[C@H](CO)N(C(C)=O)CC31CN(C(C)=O)C1	9	-6	15
C[C@H]1CN([C@@H](C)CO)C(=O)c2cc(C#Cc3ccccc3F)cnc2O[C@@H]1CN(C)C(=O)Cc1cccnc1	-6	-4	-1.8
O=C(C[C@@H]1CC[C@H](NC(=O)C2CCOCC2)[C@H](CO)O1)NCc1ccccc1Cl	-2	-1	-1.2
CCCNC(=O)N1[C@H](CO)[C@H](c2ccc(-c3cccc(OC)c3)cc2)[C@@H]1C#N	-2	-3	1.1
C[C@H]1CN([C@@H](C)CO)C(=O)c2ccccc2-c2ccccc2CO[C@@H]1CN(C)Cc1cccc(C(F)(F)F)c1	-37*	-26*	-11*
CN1C(=O)c2cc(NC(=O)C3CCOCC3)ccc2OC[C@@H]2O[C@@H](CC(=O)NCC3CCCCC3)CC[C@H]21	-1	1	-1.7
CO[C@@H]1CN(C)C(=O)c2cc(NC(=O)c3nc4ccccc4s3)ccc2OC[C@H](C)NC[C@H]1C	-8	2	-10
C[C@@H]1CN([C@@H](C)CO)C(=O)c2cccc(NC(=O)Nc3ccc4c(c3)OCO4)c2O[C@@H]1CN(C)Cc1ccc(C(=O)Nc2ccccc2N)cc1	4	2	2.1
C[C@@H]1CCCCO[C@@H](CN(C)C(=O)c2ccncc2)[C@@H](C)CN([C@H](C)CO)C(=O)c2cc(NS(=O)(=O)c3cccs3)ccc2O1	2	-8	9.7
CN(C)C(=O)[C@@H]1[C@@H](CO)[C@@H]2Cn3c(cccc3=O)[C@H]1N2CC1CCOCC1	2	-4	6.1
COc1ccc(NC(=O)Nc2ccc3c(c2)[C@@H]2C[C@H](CC(=O)NCc4ccc5c(c4)OCO5)O[C@H](CO)[C@@H]2O3)cc1	2	3	-0.6
CCCNC(=O)N1[C@@H](CO)[C@H](c2ccccc2)C12CN(C(=O)CC)C2	5	-3	8.5
CC(C)COC(=O)N(C)C[C@@H]1OCc2ccccc2-c2ccccc2C(=O)N([C@H](C)CO)C[C@@H]1C	?	·	·
COCC(=O)N1C[C@H](C)[C@H](OC)CN(C)C(=O)c2ccc(NC(=O)c3cc(C)on3)cc2OC[C@@H]1C	-2	-1	-1.3
CC(=O)N(C[C@H]1N[C@H](CO)[C@@H]1c1ccc(-c2cccnc2)cc1)C1CCCC1	-2	-1	-0.8
O=C(C[C@@H]1C[C@@H]2c3cc(NC(=O)Cc4ccncc4)ccc3O[C@@H]2[C@@H](CO)O1)NCCN1CCCCC1	5	2	3.6
CCC(=O)N1C[C@@H]2[C@H](c3ccccc31)[C@H](CO)N2Cc1cc(F)ccc1F	0	-2	2.1
O=C(C[C@H]1C[C@@H]2c3cc(NC(=O)Nc4ccc(C(F)(F)F)cc4)ccc3O[C@@H]2[C@H](CO)O1)NCCc1ccccc1	?	·	·
CC(C)NC(=O)N1[C@@H](CO)[C@@H]2c3ccccc3N(C(=O)Nc3cccc(Cl)c3)C[C@@H]21	2	0	2.4
CNC(=O)C[C@@H]1CC[C@H]2[C@@H](COc3ccc(NC(=O)c4cscn4)cc3C(=O)N2C)O1	1	-5	5.6
CN(C)CC#Cc1ccc([C@H]2[C@@H](CO)N3CCCCN(C(=O)Nc4ccc(F)cc4)C[C@@H]23)cc1	11	-1	12
COCC(=O)N1C[C@@H]2[C@H](c3ccccc31)[C@H](CO)N2Cc1ccccc1Cl	-1	0	-0.4
C[C@@H]1CN([C@H](C)CO)C(=O)CCCn2nncc2CO[C@@H]1CN(C)S(=O)(=O)c1ccc(-c2ccccc2)cc1	-2	5	-6.7
CO[C@H]1CC[C@@H]2CCOc3c(C#N)cccc3C(=O)N(C)C[C@@H](OC)[C@H](C)C(=O)N(C)C[C@@H]1O2	0	0	0.5
C[C@H](O)C#Cc1ccc([C@H]2[C@@H](CO)N3CCCCN(C(=O)c4cccc(F)c4)C[C@@H]23)cc1	-4	1	-5.1
CCNC(=O)[C@H]1[C@H](CO)[C@H]2Cn3c(ccc(-c4cccc(OC)c4)c3=O)[C@H]2N1Cc1nccs1	5	-4	8.5
C=C(C)C[C@@H]1CCn2nncc2COCCNC1=O	2	25	-23
CC(=O)N1[C@H](C(=O)N2CCc3ccccc3C2)[C@@H](CO)[C@@H]2Cn3c(ccc(-c4cccnc4)c3=O)[C@@H]21	9	6	2.9
C[C@H]1CCCCO[C@H](CN(C)C(=O)Nc2ccc(C(F)(F)F)cc2)[C@@H](C)CN([C@@H](C)CO)C(=O)c2cc(NS(=O)(=O)c3ccc(Cl)cc3)ccc2O1	-1	-7	5.5
CN(C)CCCNC(=O)C[C@@H]1CC[C@@H]2[C@H](COc3ccc(NC(=O)C4CCC4)cc3C(=O)N2C)O1	-3	-5	2.4
CN1[C@H](CO)[C@@H]2c3ccccc3N(C(=O)C3CCOCC3)C[C@@H]21	-3	-3	0.1
O=C(Nc1ccccc1)Nc1ccc2c(c1)[C@H]1C[C@@H](CC(=O)N3CCCCC3)O[C@@H](CO)[C@H]1O2	0	0	-0.1
O=C(Nc1ccc(F)cc1)N1CC(=O)N2[C@H](CO)[C@H](c3ccc(C#Cc4ccccc4)cc3)[C@@H]2C1	?	·	·
COc1ccccc1S(=O)(=O)N(C)C[C@@H]1Oc2cc(/C=C/c3ccccc3)ccc2S(=O)(=O)N([C@@H](C)CO)C[C@@H]1C	-2	-2	-0.1
COc1ccc(-c2cnc3c(c2)C(=O)N([C@@H](C)CO)C[C@H](C)[C@H](CN(C)C(=O)C2CCC2)O3)cc1	-1	1	-2.3
O=C(C[C@H]1C=C[C@H](NC(=O)c2ccc(F)cc2)[C@H](CO)O1)NCCc1ccncc1	17	13	3.1
N#C[C@@H]1[C@H](c2ccccc2-c2cccc(F)c2)[C@H](CO)N1C(=O)Cc1cccnc1	19	21	-2.5
COc1ccc2c3c([nH]c2c1)[C@@H](CO)N(C(=O)c1cccnc1)CC31CCN(C(=O)CN(C)C)CC1	16	4	12
C[C@@H]1CN([C@@H](C)CO)C(=O)c2ccccc2-c2ccccc2CO[C@@H]1CN(C)C(=O)[C@@H]1CCCN1C	3	5	-1.9
C[C@@H]1CCCCO[C@@H](CN(C)C(=O)CCCN(C)C)[C@H](C)CN([C@@H](C)CO)C(=O)c2cc(NS(=O)(=O)c3ccc(Cl)cc3)ccc2O1	2	0	2.0
O=C(C[C@H]1C[C@@H]2c3cc(NC(=O)Nc4ccccc4)ccc3O[C@@H]2[C@@H](CO)O1)NC1CCCC1	-2	3	-4.8
COc1ccc2c3c(n(C)c2c1)[C@H](CO)N(C(=O)C1CCOCC1)CC31CCN(C)CC1	9	-3	12
O=C(O)[C@@H]1[C@@H](CO)[C@@H]2Cn3c(ccc(C4=CCCCC4)c3=O)[C@@H]2N1Cc1ccc2c(c1)OCO2	1	1	0.6
CC(C)NC(=O)N1[C@H](CO)[C@H]2c3ccccc3N(C(=O)Nc3ccc(F)cc3)C[C@H]21	3	8	-4.7
CN1C(=O)c2cc(NC(=O)Cc3cccs3)ccc2OC[C@@H]2O[C@H](CC(=O)NCc3ccc(-c4ccccc4)cc3)CC[C@H]21	0	-3	2.8
CO[C@H]1CN(C)C(=O)c2cc(NC(=O)c3ccc(F)cc3)ccc2OC[C@@H](C)NC[C@@H]1C	4	3	0.8
COc1ccc(S(=O)(=O)N(C)C[C@H]2Oc3ccc(NS(=O)(=O)c4c(C)noc4C)cc3C(=O)N([C@H](C)CO)C[C@H]2C)cc1	-2	-6	3.3
CCC(=O)N1CC(=O)N2[C@H](CO)[C@H](c3ccc(-c4ccccc4F)cc3)[C@H]2C1	-5	0	-4.5

Some of the compounds tested; count on the stated rates, not on these rows.
